miR-21 FLuc = raises the signal of a miR-21 reporter; HeLa miR-21 FLuc reporter, luciferase, 48 h; Potency, µM (doses to about 38.3 µM), inactives show at the top dose reporter change, positive = more light; 340,000 tested, under 10 active; AID 2288; active = well fitted rising curve with a large enough effect; inconclusive = small, poorly fitted or top-dose-only effect; inactive = no such curve, though single readings can be large or run the other way;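 note: % of control where 0% means no effect; miR-21 action dims this reporter so a rising signal means less miR-21 action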
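Luminescence from a firefly luciferase reporter carrying a miR-21 binding site downstream, stably expressed under a CMV promoter in HeLa cells that make miR-21 endogenously, reports miRNA modulation after 48 h compound exposure up to approximately 40uM final.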
Rango complex inh = Rango-importin beta binding inhibition; AID 540263; Rango CFP/YFP FRET sensor + importin beta, 45 min; Q14974; hit rate 0.031% among 340,000; Potency, µM (series often up to 92.2 µM), for the others: at the highest dose inhibition of complex formation; active = rising FRET ratio curve, often small or poorly fitted; inconclusive = mostly compound fluorescence or quenching in the first reads; inactive = flat curves in all reads;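 note: potency is the fitted concentration of half-maximal effect; 0% = DMSO wells and 100% = buffer wells lacking importin beta; nearly all actives have a fitted effect of over 15% in size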
Target sequence (Q14974 whole entry, looked up): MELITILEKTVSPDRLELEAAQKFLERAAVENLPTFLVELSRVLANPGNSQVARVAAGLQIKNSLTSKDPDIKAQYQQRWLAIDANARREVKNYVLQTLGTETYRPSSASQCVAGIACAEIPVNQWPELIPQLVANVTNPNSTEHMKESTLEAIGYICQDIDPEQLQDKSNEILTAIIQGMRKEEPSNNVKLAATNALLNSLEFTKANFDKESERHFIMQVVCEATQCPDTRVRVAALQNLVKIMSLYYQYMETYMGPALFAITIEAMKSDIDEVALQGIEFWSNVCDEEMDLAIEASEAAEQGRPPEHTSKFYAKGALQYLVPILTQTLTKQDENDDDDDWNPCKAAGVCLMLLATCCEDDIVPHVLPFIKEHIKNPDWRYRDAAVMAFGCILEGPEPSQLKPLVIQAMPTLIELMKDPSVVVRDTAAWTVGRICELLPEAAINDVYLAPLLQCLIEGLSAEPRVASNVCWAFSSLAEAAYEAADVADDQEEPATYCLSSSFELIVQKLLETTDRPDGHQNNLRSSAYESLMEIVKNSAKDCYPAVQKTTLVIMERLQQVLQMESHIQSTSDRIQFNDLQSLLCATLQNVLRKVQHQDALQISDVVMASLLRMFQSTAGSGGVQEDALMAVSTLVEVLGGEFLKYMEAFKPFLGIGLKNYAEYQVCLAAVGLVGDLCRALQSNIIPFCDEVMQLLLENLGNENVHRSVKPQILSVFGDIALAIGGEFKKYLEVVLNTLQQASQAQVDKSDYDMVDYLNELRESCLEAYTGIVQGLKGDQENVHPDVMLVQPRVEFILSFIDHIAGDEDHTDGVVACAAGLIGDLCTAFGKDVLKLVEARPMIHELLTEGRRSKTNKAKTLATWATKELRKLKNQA
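Inhibition scored from the CFP 486 nm/YFP 530 nm FRET ratio 45 min after adding 0.125 microM importin beta to 50 nM Rango biosensor preincubated 5 min with compound (room temperature, PBS with DTT, Tween-20, BSA). No-importin wells as positive control.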
GLA inh pH 4.5 = inhibitors of human alpha-galactosidase A at pH 4.5; P06280; purified enzyme, 4-MU-alpha-Gal fluorescence, pH 4.5; activity change, negative = inhibition, % at 105 µM; 230,000 tested, under 10 active; AID 1467; inconclusive = small, poorly fitted or top-dose-only inhibition, or a rising curve; inactive = flat fitted curve, though single readings scatter; no compound was filed as active;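 note: 0% = full activity with enzyme and -100% = basal without enzyme; dose as in the result columns while the protocol names 77 µM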
Rango dissoc inh = inhibition of RanGTP-driven Rango-importin beta dissociation. O95149+P62826. Biochemical FRET Rango-importin beta, RanGTP-induced dissociation. Potency, µM (top dose mostly 46.1 µM), without a hit: at the highest dose activity change, negative = inhibition. hit rate 0.071% among 340,000. AID 540253; active means falling FRET ratio curve, often poorly fitted, with flat reads before Ran was added; inconclusive means other falling curves, or compound fluorescence or quenching; inactive means flat or rising ratio curve;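 note: potency is the fitted concentration of half-maximal effect; % of control where 0% means no effect; nearly all actives have a fitted effect of over 45% in size; -100% = wells without RanGTP and RCC1; the record marks most hits as doubtful in a second field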
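Rango/importin beta premix (0.1/0.25 uM final), PBS + 1 mM DTT + 0.02% Tween-20 + 0.1% BSA; cpd 5 min RT; FRET pre-read; + RanGTP-RCC1 (0.6 uM Ran, 2 mM GTP, 0.2 uM RCC1); 45 min RT; FRET post-read, ex 430, em 486/530 nm.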
* hit, by the source's call; u = inconclusive; x = not tested or not shown; & = joins results of further samples.

SMILES | miR-21 FLuc | Rango complex inh | GLA inh pH 4.5 | Rango dissoc inh
O=C(O)CCCC(=O)OCCCCc1cccs1 | -3.3% | -0.1% | 7.7 | -0.1%
CCCOc1ccc(N2C(=O)CC(N3CCN(c4nc5ccccc5s4)CC3)C2=O)cc1 (centres undefined) | -0.1% | 2.5% | 3.9 | -13.6%
C=CC(n1cncn1)C(O)(c1ccccc1)c1ccccc1 (centres undefined) | x | -0.4% | x | 12.4%
CC(C)(C)c1ccc(OCC(O)CN2CCN(C(=O)c3ccccc3)CC2)cc1 (centres undefined) | 0.4% | 2.3% | x | 0.9%
O=C(Nc1nc2ccccc2n1CCN1CCCCC1)c1ccc(Cl)cc1 | -21.8% | x | 9.9 | x
COc1ccc2cc(C(=O)N3CCN(c4ccccc4OC)CC3)[nH]c2c1 | -0.7% | -0.4% | x | -20.2%
CCn1ncc(C2=NOC(C(=O)NCC(C)C)C2)c1C (centres undefined) | -8.0% | 0.5% | 2.8 | 2.7%
COc1ccc(CN(CC(=O)NCc2ccccc2)C(=O)CCC(=O)Nc2nccs2)cc1 | 2.0% | -1.5% | x | -13.4%
O=C(OCC1O[C@@H](OC(=O)c2cc(O)c(O)c(O)c2)[C@@H](OC(=O)c2cc(O)c(O)c(O)c2)[C@@H](OC(=O)c2cc(O)c(O)c(O)c2)[C@@H]1OC(=O)c1cc(O)c(O)c(O)c1)c1cc(O)c(O)c(O)c1 (some centres undefined) | 14.2% | x | 0.1 | x
COc1ccc(NC(=O)c2cc3c(=O)n(C)c4ccccc4c3n2C)cc1Cl | -3.6% | 2.8% | 9.1 | -3.8%
CC1(C)Cc2c(cnn2-c2cccc(F)c2)C(NC(=O)CSc2ccccn2)C1 (centres undefined) | -8.3% | 1.2% | x | u
CO/N=C(/CNC(=O)c1cccc(Cl)c1)c1ccc(Cl)cc1 | -10.1% | 0.2% | -13.1 | 6.7%
COCCN(CCOc1cc(C)cc(C)c1)Cc1ccc(Cl)cc1 | 0.4% | 2.0% | x | 0.0%
CCC1(CC)C(=O)NC(=O)NC1=Nc1cccc(OC)c1 | 1.5% | -4.2% | -16.8 | 0.6%
Cc1ccc(OCC(=O)NC2CCS(=O)(=O)C2)c(C)c1 (centres undefined) | -4.4% | 0.1% | x | 6.2%
CCNC(=S)N/N=C/c1cc(Br)cc(Br)c1OC | 3.4% | -6.8% | -6.5 | -0.3%
Cc1cc(NS(=O)(=O)c2ccc(NC(=O)COc3cc(C)c(Cl)c(C)c3)cc2)no1 | x | -1.1% | x | 2.8%
CCCN(CCC)c1nc(C)cc(C(C#N)c2nc3ccccc3o2)n1 (centres undefined) | -8.8% | x | 0.9 | x
O=C(CN(C(=O)CNS(=O)(=O)c1ccc(F)cc1)c1ccccc1)NCc1ccco1 | 0.2% | -0.3% | x | -2.1%
COc1ccccc1N1CCN(/N=C/c2cccc(O)c2)CC1 | -54.4% | 1.0% | -14.2 | 15.4%
COc1ccc(C2C(C#N)=C(N)Oc3cc(C)n(Cc4ccco4)c(=O)c32)cc1 (centres undefined) | -1.6% | u | -7.6 | -5.1%
COC(=O)CSc1nnc(COc2ccc([N+](=O)[O-])cc2)n1C | 1.8% | -0.9% | 3.9 | 0.7%
Cc1ccc(NC(=O)CSc2ccc3c(c2)OCCO3)nc1 | x | -1.7% | x | -11.6%
CC(C)(C)SCCNC(=O)CN1C(=O)c2ccccc2S1(=O)=O | -12.8% | -3.6% | -9.5 | -6.9%
CC(=O)Nc1sc(N/N=C\c2ccc(O)cc2)nc1-c1cccs1 | -25.9% | 1.7% | -2.5 | -1.6%
CC(C)N(Cc1nc(-c2ccccc2)no1)C(=O)C1CCCCC1 | 3.5% | 2.6% | -1.4 | -22.3%
CCN(CC)S(=O)(=O)c1ccc(N2CCCC2)c(NC(=O)c2nn(C)c(=O)c3ccccc23)c1 | x | 0.2% | x | -22.5%
O=C(c1ccccc1)N1N=C(c2ccc(F)cc2)CC1(O)C(F)(F)F (centres undefined) | -5.1% | 0.6% | x | -17.5%
Cc1cccc(N2CCN(Cc3cn(C)nc3-c3ccccc3F)CC2)n1 | 10.2% | 0.8% | 0.8 | -4.1%
O=C(O)c1cccc(COc2ccc3c(c2)CCC3)c1 | -52.6% | 0.6% | 15.0 | 4.3%
CCOCCCNC(=O)CN1C(=O)CSc2ccccc21 | -8.4% | 7.6% | -0.4 | -11.2%
NC(=O)C1CCN(C(=O)c2ccc(NS(=O)(=O)c3ccc(Br)s3)cc2)CC1 | x | 1.5% | x | -6.5%
CCOC(=O)c1ccc(NC(=O)N2CCN(S(C)(=O)=O)CC2)cc1 | -6.1% | -1.3% | 5.3 | -1.9%
COc1ccc(C(=O)Nc2nc3ccc4nc(C)sc4c3s2)cc1 | -9.0% | 0.0% | 8.0 | 10.4%
Cc1ccc(CN2CCN(c3ccccc3Cl)CC2)o1 | x | 3.6% | x | 0.0%
Cc1cc(NS(=O)(=O)c2ccc(NC(=O)CCCOc3ccccc3)cc2)no1 | -2.8% | 2.8% | 5.1 | -6.1%
CCOc1cc(/C=C2\SC(=O)N=C2N)ccc1O | 11.2% | 8.1% | -3.6 | -2.6%
CN1C(=S)SC2CS(=O)(=O)CC21C (centres undefined) | -9.7% | 2.4% | -1.8 | 0.2%
Clc1ccc(-c2noc(CCCOc3ccccc3)n2)cc1 | -1.7% | -0.2% | 2.4 | 8.3%
CC(NS(=O)(=O)c1ccc(F)cc1)C(=O)NCc1ccncc1 (centres undefined) | 1.3% | 0.5% | 2.5 | 8.2%
C=CCNC(=O)CC(=O)N/N=C/c1ccc(F)cc1 | -1.9% | 7.2% | -1.1 | -4.9%
O=C(CN1C(=O)c2ccccc2C1=O)Nc1ccc(S(=O)(=O)NCC2CCCO2)cc1 (centres undefined) | 0.1% | 0.1% | -4.6 | 15.9%
COC(=O)c1sccc1S(=O)(=O)N1CCCC(N(C)CCc2ccccn2)C1 (centres undefined) | 2.9% | -1.7% | x | 7.1%
O=P(O)(O)c1ccccc1OCCOCCOc1ccccc1P(=O)(O)O | 3.3% | -5.0% | -4.0 | -4.7%
Clc1ccc(OCc2nc(-c3ccncc3)no2)c(Cl)c1 | -48.8% | -1.9% | 0.0 | -5.9%
C/C=C/C=C/[C@H]1Cc2cc(O)cc(O)c2O1 | 3.9% | x | 0.8 | x
Cc1nc(-c2cnn(-c3ccccc3)c2)c2cc(C)oc2n1 | -0.6% | -1.1% | -9.8 | 7.8%
CC1=NOC(=O)/C1=C/c1ccc(N(C)C)cc1 | 0.7% | -0.6% | -6.4 | 5.9%
CC(C)CC(CO)N1CCN(C(=O)c2ccc(Cl)cc2Cl)CCC1=O (centres undefined) | 0.2% | -1.9% | 0.8 | 13.2%
Cc1cccc(-c2noc(CCC(=O)Nc3ccccc3)n2)c1 | -7.1% | -0.5% | -9.5 | -0.2%

(next part)
SMILES | miR-21 FLuc | Rango complex inh | GLA inh pH 4.5 | Rango dissoc inh
COc1ccc(/C=C2\N=C(c3ccc(C)cc3)OC2=O)cc1 | -0.9% | -5.0% | x | 1.7%
Cc1cccc(N(CC(=O)N/N=C/c2ccc(OCC(=O)NCc3ccco3)cc2)S(C)(=O)=O)c1C | -2.0% | 1.3% | -4.0 | -0.2%
O=C(c1cccc(S(=O)(=O)N2CCCCCC2)c1)N1CCN(c2ccccc2)CC1 | -0.9% | 4.3% | 7.0 | 30.2%
CCCOc1ccc(C2CC(=O)Nc3cc(OC)c(OC)cc32)cc1 (centres undefined) | 12.1% | -0.3% | x | 10.4%
O=C(COC(=O)Cc1c(Cl)cccc1Cl)NC1CCCC1 | x | -0.9% | x | 0.9%
COc1ccc(NC(=O)CN2C(=O)CSC2=O)cc1 | -4.6% | -0.5% | 8.3 | -4.6%
COc1ccccc1NC(=O)c1ccc2snnc2c1 | -27.0% | -1.1% | 9.3 | -7.6%
CCN(CC)C(=O)CSc1nnc(-c2ccc(S(=O)(=O)NCc3ccccc3Cl)cc2)o1 | -2.4% | -3.7% | 7.9 | -10.2%
CC1CN(C(=O)CN2C(=O)NC3(CCCCCC3)C2=O)CC(C)O1 (centres undefined) | 0.8% | -6.0% | 5.6 | 20.1%
CC(C)COc1ccc(C(=O)NC(=S)Nc2ccc(CN3CCOCC3)cc2)cc1 | -2.8% | 2.8% | 1.5 | -20.5%
O=c1cc(CO)oc(C(Nc2ccccn2)c2ccccc2Cl)c1O (centres undefined) | -1.5% | 8.7% | 1.7 | -4.4%
CCOc1ccc(C2C(C#N)=C(N)Oc3nc[nH]c(=O)c32)cc1 (centres undefined) | 10.4% | 3.9% | -0.5 | 2.1%
Cc1ccc(S(=O)(=O)N2CCN(C(=O)COC(=O)CCOc3cc(C)ccc3C)CC2)c(C)c1 | x | 0.4% | x | -8.3%
CC(C)(C)n1nc2c(c1NC(=O)c1ccc(S(=O)(=O)N3CCCCC3)cc1)CS(=O)C2 (centres undefined) | -1.5% | -2.3% | 0.1 | -6.4%
CCCCCNC(=O)c1c[nH]c2ccc(S(=O)(=O)N3CCC4(CC3)OCCO4)cc2c1=O | -3.5% | -2.6% | -3.5 | -11.3%
COc1ccccc1-n1cnnc1SCC(=O)Nc1cc(C)on1 | 17.6% | -0.7% | -0.8 | 0.6%
COc1ccc(C2NCCc3c2[nH]c2ccccc32)cc1CSc1nc2ccccc2s1 (centres undefined) | 13.9% | 0.1% | -5.9 | -27.1%
CC(=O)NC(CC(=O)Nc1cccc(S(=O)(=O)N2CCOCC2)c1)c1ccccc1 (centres undefined) | x | -2.9% | x | 3.8%
O=C(O)CNC(=S)N(Cc1ccccc1)Cc1cccs1 | 1.7% | 0.2% | -2.0 | -4.3%
COc1ccc(C2c3ccc(O)cc3Oc3ncn(CCCO)c(=N)c32)cc1 (centres undefined) | -2.0% | u | -5.7 | u

One compound at a time, as listed above. Order of screens: miR-21 FLuc, Rango complex inh, GLA inh pH 4.5, Rango dissoc inh
COc1ccc(NC(=O)CN2C(=O)CSC2=O)cc1 in the list: -4.6%, -0.5%, 8.3, -4.6%
Cc1ccc(NC(=O)CSc2ccc3c(c2)OCCO3)nc1 in the list: x, -1.7%, x, -11.6%

Next results follow.
SMILES | miR-21 FLuc | Rango complex inh | GLA inh pH 4.5 | Rango dissoc inh
CN1CCC(N(C)S(=O)(=O)c2ccc(NC(=O)COc3ccc(F)cc3Cl)cc2)CC1 | -12.8% | 0.3% | x | -1.1%
COCCNC(=O)COc1ccc(C)c(C)c1 | 0.6% | -2.6% | 2.0 | 0.5%
CC(=O)c1cccc(N(CC(=O)NC2CCCC2)C(=O)CNC(=O)c2cccs2)c1 | -0.1% | 3.8% | x | 7.6%
CCCSc1nnc2n(N)c(=O)c3ccccc3n12 | -7.3% | 6.1% | -17.9 | -6.5%
CC(=O)CCN1C(=O)NC2(CCCc3ccccc32)C1=O (centres undefined) | 0.1% | 1.0% | x | 0.1%
CC(C)(C)C(=O)Nc1nc(-c2ccccc2)ns1 | -4.5% | -0.3% | -25.6 | 13.2%
COc1ccccc1NC(=O)NCc1ccccc1F | -12.0% | -0.3% | -9.0 | 15.2%
CCOC(=O)c1c2c3c(cccc3n(C)c1=O)C(=O)c1ccccc1-2 | 3.6% | u | x | -13.3%
Cc1nc2c(C)cccn2c1/C(O)=C1\C(=O)C(=O)N(CCN(C)C)C1c1ccncc1 (centres undefined) | 0.0% | -0.2% | 2.1 | -9.9%
COc1ccccc1CC(=O)NCCc1ccccc1 | -9.1% | u | x | 4.1%
COc1ccc(Cc2nnc(NC(=O)c3ccccc3)s2)cc1OC | -0.6% | 2.7% | x | 0.0%
C/C(=N\NC(=O)CCc1c[nH]c2ccccc12)c1cccc([N+](=O)[O-])c1 | -17.7% | 1.1% | 3.9 | 12.2%
Cc1cc2oc(=O)cc(CN3CCC(C)CC3)c2c(C)c1Cl | -4.7% | 0.2% | -0.7 | -9.2%
Cc1ccc(Cn2c(=O)c3cccnc3n(CC(=O)Nc3cccc(C(F)(F)F)c3)c2=O)cc1 | 26.0%&2.0% | -6.0% | 2.2 | 3.2%
CCN(C(=O)COC(=O)c1c2c(nc3ccccc13)/C(=C/c1ccccc1)CC(C)C2)C1CCS(=O)(=O)C1 (centres undefined) | 0.4% | -0.7% | 3.3 | -5.0%

Source: PubChem BioAssay (National Center for Advancing Translational Sciences (NCATS))

This is a subset. The share of hits here may be higher or lower than overall.
